# From PubChem
# Menin-MLL FL inh: menin-MLL binding inhibition, fluorescein peptide; FP activity change, % at 61.4 µM; AID 1766; 290,000 tested, under 10 active; Fluorescence polarization, fluorescein-MLL peptide displacement from menin; inconclusive = falling polarisation curve, or a change in total fluorescence; inactive = total fluorescence flat and polarisation flat or rising; no compound was filed as active; the % refers to the polarisation; negative = inhibition;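 further: % of control where 0% means no effect; inhibitors lower the polarisation; unlabelled MLL peptide was the positive control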
# TRPML1 inh: human mucolipin-1 channel inhibition; Q9GZU1; TRPML1-inducible cells, Ca2+ dye fluorescence, FDSS; hits give low values; inhibition of EC80 agonist-evoked calcium signal; activity change, negative = inhibition, % (no concentration beside the values); 390,000 compounds, 0.02% hits; in the data active means activity change below about -50%; inconclusive means about -30% to -50%; inactive means above about -30%;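 further: stimulus is agonist 54-4 at its EC80 concentration; on the % scale 0 is the no-effect control and ±100 the full control effect; compound concentration not given in the record; the text of the record puts the active cut at -80%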
#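 Tet-induced TRPML1-DL cells loaded with Ca8 no-wash calcium dye were read kinetically on FDSS. Compound addition was followed by EC80 agonist 54-4 (4 uM final); inhibition was read over 110 s.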
# Sfp inh: blocks B. subtilis Sfp PPTase activity | Biochemical Sfp PPTase activity, qHTS | Potency, µM, without a hit: max response, negative = inhibition, actives largely listed as inhibitors | 310,000 compounds, 3.5% hits | AID 1490; active means well fitted inhibition curve with a large enough effect; inconclusive means small, poorly fitted or top-dose-only effect, or another doubt; inactive means no such curve, though single readings can be large or run the other way;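 further: the enzyme is Sfp with the accession as filed and its product quenches rhodamine fluorescence; potency means the concentration at half of the fitted maximal effect; 0% = enzyme reaction without inhibitor and -100% = no enzyme wells; top concentration of the series not given in the record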
#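 Fluorescence-quenching assay with 15 nM Sfp, 5 uM rhodamine-CoA and 12.5 uM BHQ-2-labelled ybbR peptide in pH 7.6 Hepes/MgCl2 buffer. Enzyme was pre-incubated with compound for 15 min at room temperature. Rate was taken from the 30-min fluorescence change (525/598 nm).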
# TRPV1 potentiator: enhances activation of the human vanilloid receptor TRPV1. Q8NER1. TRPV1-expressing cells, Fluo-8 calcium influx, capsaicin EC20 potentiation; host cell line not named in the record; control for the full effect not named in the record. potentiation, % at 8.33 µM. 320,000 compounds, 0.02% hits. AID 540277; active means potentiation above 80%; inconclusive means 30% to 80%; inactive means below 30%; further: 0% is about no effect
# Target sequence (Q8NER1 whole entry, looked up): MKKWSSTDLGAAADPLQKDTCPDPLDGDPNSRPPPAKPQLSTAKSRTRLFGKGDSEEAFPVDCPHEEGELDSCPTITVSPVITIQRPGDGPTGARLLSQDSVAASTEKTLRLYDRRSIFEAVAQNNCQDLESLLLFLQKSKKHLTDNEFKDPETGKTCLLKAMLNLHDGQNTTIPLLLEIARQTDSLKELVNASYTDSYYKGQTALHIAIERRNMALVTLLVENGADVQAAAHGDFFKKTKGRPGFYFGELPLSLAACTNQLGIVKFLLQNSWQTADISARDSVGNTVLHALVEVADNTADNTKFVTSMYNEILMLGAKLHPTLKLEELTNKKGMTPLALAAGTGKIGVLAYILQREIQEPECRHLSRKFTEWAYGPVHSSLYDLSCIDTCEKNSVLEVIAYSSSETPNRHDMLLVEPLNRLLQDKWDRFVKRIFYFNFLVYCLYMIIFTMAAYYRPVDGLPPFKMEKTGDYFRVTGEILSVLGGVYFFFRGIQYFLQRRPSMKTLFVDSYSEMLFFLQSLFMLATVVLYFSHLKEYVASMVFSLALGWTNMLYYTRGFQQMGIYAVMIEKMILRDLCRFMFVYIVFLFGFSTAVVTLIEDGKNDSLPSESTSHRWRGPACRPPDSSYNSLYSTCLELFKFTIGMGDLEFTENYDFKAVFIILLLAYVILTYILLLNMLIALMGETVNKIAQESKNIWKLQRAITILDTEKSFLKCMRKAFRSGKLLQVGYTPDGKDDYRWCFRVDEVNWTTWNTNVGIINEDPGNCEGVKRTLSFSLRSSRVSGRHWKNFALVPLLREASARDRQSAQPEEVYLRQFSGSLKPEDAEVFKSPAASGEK
#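 Fluo-8 calcium influx in TRPV1-expressing cells, kinetic read (ex 480/em 520 nm). Compound added and read 3 min for agonist activity, followed by capsaicin at EC20 final and 2 min further read for enhancement.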
# gsp ag: agonists of gsp mutant (McCune-Albright syndrome) | gsp mutant cells, cAMP HTRF, 30 min; control for the full effect not named in the record | Potency, µM (doses to about 76.9 µM), for inactives: at the highest dose activation (cAMP increase), actives largely listed as activators | 340,000 compounds, 0.13% hits | AID 624287; active = well fitted activation curve with a large enough effect; inconclusive = small, poorly fitted or top-dose-only effect, or another doubt; inactive = no such curve, though single readings can be large or run the other way; cell line not stated here;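 further: phosphodiesterase inhibitor Ro 20-1724 added with compounds to block cAMP breakdown; potency means the concentration at half of the fitted maximal effect; nearly all actives have a fitted effect of over 60% in size; about a fifth of the inactives were tested at one dose only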
#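 Cells stably selected in G418 were plated at 2000/well, grown 16-24 hr, then given compounds in DMSO with the PDE inhibitor […] (300 uM solution added) for 30 min at 37C; cAMP was read by HTRF.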
# ClpP mod: qHTS Assay for Activators of ClpP; ATP-dependent Clp protease proteolytic subunit (Bacillus subtilis (strain 168)), P80244; purified B. subtilis ClpP, FRET peptide cleavage, 20 min; Potency, µM (doses to about 57.5 µM), for the others: at the top dose activity change, negative = active; 340,000 compounds, 1.9% hits; AID 651965, 2013; active = well fitted falling curve with a large enough effect; inconclusive = small, poorly fitted or top-dose-only effect; inactive = no such curve, though single readings can be large or run the other way; further: potency means the concentration at half of the fitted maximal effect; the source files actives as falling curves though it sought activators and does not explain the sign; nearly all actives have a fitted effect of over 65% in size; many hits overshoot -100%
# Target sequence (P80244 whole entry, looked up): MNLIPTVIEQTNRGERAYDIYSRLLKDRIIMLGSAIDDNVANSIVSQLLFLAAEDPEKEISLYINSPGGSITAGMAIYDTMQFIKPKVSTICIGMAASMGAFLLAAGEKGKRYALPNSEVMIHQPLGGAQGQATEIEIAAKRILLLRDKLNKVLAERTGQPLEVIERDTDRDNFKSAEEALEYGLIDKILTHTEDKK
#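 Purified B. subtilis ClpP, 10 microg/mL final in Tris/HCl pH8 with KCl, BSA, glycerol and Tween-20, cleaved an Abz/nitrotyrosine-quenched decapeptide. Fluorescence (ex 320, em 430) was read at 0 and 20 min at room temperature. Delta was normalized to 5.8 microM ADEP and DMSO/no-enzyme controls.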
# gsp antagonist: antagonists of gsp mutant (McCune-Albright syndrome); gsp-mutant cells, cAMP HTRF, 30 min; control for the full effect not named in the record; Potency, µM (doses to about 76.9 µM), for inactives: at the top dose activity change, negative = inhibition, usual class: inhibitors; 340,000 compounds, 0.4% hits; active = falling curve of any shape with a large fitted effect; inconclusive = falling curve, mostly with a smaller effect; inactive = flat or rising curve; cell line not stated here;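 further: intracellular cAMP measured with PDE inhibitor Ro 20-1724 present during compound exposure; potency means the concentration at half of the fitted maximal effect; on the % scale 0 is the no-effect control and ±100 the full control effect; nearly all actives have a fitted effect of over 65% in size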
#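 Cells in G418 medium, seeded 16-24 h, 37C; buffer exchange to DPBS + 1 mM CaCl2, 0.5 mM MgCl2, 0.05% BSA; cpds in DMSO + […] (300 uM stock), 30 min 37C; HTRF cAMP detection.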
# Numbers without * were called inactive; ? = inconclusive; . = no result given; [ ] = another dose, or the depositor's remark.
SMILES,Menin-MLL FL inh,TRPML1 inh,Sfp inh,TRPV1 potentiator,gsp ag,ClpP mod,gsp antagonist
COCCNC(=O)C(c1ccc(F)cc1)N(C(=O)CCC(=O)Nc1nccs1)c1cccc(C)c1 (centres undefined),1.2,2.8,-0.7%,-12.5,16.8%[15.4 µM],0.0%,-40.0%
COc1ccccc1CN1CCN(C(=O)c2ccco2)CC1,-0.9,2.0,-21.6%,-0.9,5.6%[15.4 µM],-4.8%,5.4%
O=C(NNS(=O)(=O)c1ccccc1)c1csc(-c2cccnc2)n1,8.5,16.1,3.0%,-1.3,-0.4%[15.4 µM],-7.6%,-12.4%
Cc1ccc(-n2c(-c3cn(C)nc3C)n[nH]c2=S)cc1,-0.5,.,-13.0%,-3.5,.,.,.
COc1ccc(OC)c(S(=O)(=O)Nc2cc3c4c(c2)CCN4C(=O)CC3)c1,.,3.6,.,10.7,-2.5%,0.2%,-10.3%
CCN1C(=O)C(Cc2nc3ccccc3c(=O)n2-c2ccccc2)c2ccccc21 (centres undefined),2.9,2.1,-14.2%,-1.2,-3.2%,-1.0%,-19.1%
CCSc1nnc(CNC(=O)C23CC4CC(CC(C4)C2)C3)n1Cc1ccccc1,2.4,8.3,-4.3%,-13.1,0.0%,0.9%,0.1%
O=C(c1ccco1)N1CCN(C(=O)C2CC(=O)N(c3ccc(Cl)cc3)C2)CC1 (centres undefined),-4.8,38.6,-0.3%,-0.3,-3.6%,.,-2.8%
COc1ccc(CC(=O)NNC(=O)c2cccs2)cc1OC,3.7,5.0,23.1%,-8.0,7.0%[15.4 µM],.,13.2%
Cc1ccc(NC(=O)Nc2ccc3c(c2)OCO3)c(OC(F)F)c1,0.7,-12.3,-4.5%,-2.0,14.9%[15.4 µM],-2.4%,2.1%
Cc1ccccc1OCC(=O)NC(=S)Nc1ccc(Br)c(C)n1,3.8,5.4,11.7%,11.8,-12.0%,0.2%,-0.6%
O=C(COc1ccc(F)cc1Br)NCC1(N2CCOCC2)CCCCC1,.,-13.9,.,-33.4,-37.6%[inhibitor],-1.9%,-14.4%
CC(NC(=O)c1ccc(Cn2cc([N+](=O)[O-])cn2)o1)c1ccccc1 (centres undefined),1.9,-3.7,12.6%,?,5.4%,-1.1%,-3.2%
O=C(/C=C/c1cccs1)NC(=S)Nc1ccc(S(=O)(=O)Nc2ccccc2C(F)(F)F)cc1,4.0,8.8,-5.7%,5.6,17.9%,-1.3%,-19.8%
CCc1ccc(/C=C(\C)C(=O)c2c(C)cc(C)[nH]c2=O)cc1,-1.3,6.7,-9.1%,0.1,-38.7%[inhibitor],1.4%,-0.1%
CN1CCC(C(=O)N2CCCC(C(=O)c3ccc4c5c(cccc35)CC4)C2)CC1 (centres undefined),0.7,31.5,5.4%,8.5,-30.7%[inhibitor],4.3%,-0.6%
CC(Sc1nnnn1C1CC1)C(=O)N1c2ccccc2NC(=O)C1(C)C (centres undefined),.,9.3,.,.,-8.7%,0.6%,10.3%
CC(C)OC(=O)C(C#N)c1nc2ccccc2nc1N1CCN(Cc2ccc3c(c2)OCO3)CC1 (centres undefined),-24.1,.,17.4%,-7.8,.,.,.
C=CCn1c(=O)c2ccccc2n2c(SCC(=O)NCCc3ccccc3)nnc12,7.6,-8.8,9.5%,25.4,20.7%,-3.9%,-16.2%
CCOC(=O)c1cc(NC(=O)N(CC)C2CCCCC2)c(C)nc1C,3.1,13.0,7.1%,-10.7,-32.7%[inhibitor],-8.5%,4.1%
Cc1cccc(N2CCN(C(=O)NC3CCCCC3)CC2)c1C,2.7,10.0,-2.3%,-19.3,9.3%,0.2%,-12.1%
Cc1ccc(C(=O)NCCCCNC(=O)c2ccc(C)o2)o1,0.8,15.4,8.4%,1.7,24.3%,0.7%,1.7%
C=CCn1c(SCC(=O)N2CCN(c3ccccc3)CC2)nc2c([nH]c3ccccc32)c1=O,.,16.7,1.5%,-1.7,24.7%,-3.5%,2.1%
COc1ccc(C(=O)C=CNNC(=O)c2ccc(Cl)cc2)cc1,7.5,13.8,17.3%,10.7,?,.,1.5%
CCOC(=O)CSc1nc2ccc(NC(=O)CSc3nnnn3Cc3ccccc3)cc2s1,5.1,8.0,-29.7%,9.8,-43.4%[inhibitor],1.5%,-20.8%

# (listing goes on)
SMILES,Menin-MLL FL inh,TRPML1 inh,Sfp inh,TRPV1 potentiator,gsp ag,ClpP mod,gsp antagonist
Cc1ccc(C(O)c2nccn2C)o1 (centres undefined),6.5,-1.8,-10.2%,5.5,?,3.0%,6.5%
Cc1c(OC(C)C(=O)O)ccc2c(-c3ccccc3)cc(=O)oc12 (centres undefined),3.5,-6.2,15.3%,-0.5,21.6%,?,-2.0%
O=c1[nH]cc(NCc2ccccc2)c(=O)[nH]1,.,15.2,.,.,1.4%,-2.6%,1.1%
Cc1ccc([C@H]2N[C@]3(CCCN(Cc4ccccc4)C3=O)[C@H]3C(=O)N(C)C(=O)[C@@H]23)cc1,.,-10.3,.,.,-69.8%[inhibitor],-0.2%,.
CC1(C)CC(=O)C2=C(C1)OC(N)=C(C#N)C2c1ccccc1OC(=O)N1CCOCC1 (centres undefined),3.0,-15.3,1.7%,3.1,-6.4%,0.0%,2.7%
Cc1ccc(C(=O)N2CCCC(CCC(=O)N3CCN(c4ccccn4)CC3)C2)cn1 (centres undefined),2.3,7.7,10.8%,-2.2,-1.8%,-29.0%,-1.3%
COc1cc(OC)cc(N(C(=O)c2snc(C(N)=O)c2N)C(C(=O)NCC2CCCO2)c2ccc(C)o2)c1 (centres undefined),-1.2,.,0.4%,-13.4,.,.,.
CC(Nc1nc(-c2ccncc2)nc2ccccc12)c1ccccc1 (centres undefined),6.9,.,-10.4%,-7.8,?,-14.7%,?
O=C1NC(=O)/C(=C\c2ccc(OCc3ccccc3)cc2)S1,1.2,5.9,-15.8%,-3.5,?,-0.4%,-10.5%
O=C(O)CSCC(=O)Nc1cc(C(F)(F)F)ccc1Cl,0.8,1.6,1.3%,-7.2,-42.5%[inhibitor],-0.4%,8.3%
CCc1cc2ccc(C)cc2nc1SCC(=O)NC1CCCC1,.,2.9,16.6%,-4.5,3.7%,.,-1.9%
O=C(Nc1cc(S(=O)(=O)N2CCOCC2)ccc1Oc1ccc(F)cc1)C1=COCCO1,.,-10.6,.,-3.2,-15.1%[15.4 µM],.,?
COc1cc2sc(-c3ccccc3OC)c(-c3ccc(OCCN4CCOCC4)cc3)c2cc1OC,.,18.4,.,.,.,?,-7.7%
COC(=O)c1nn(-c2ccc(C)cc2)ccc1=O,-2.8,19.3,15.1%,-2.2,-9.0%,-1.3%,3.0%
Cc1nn2c(-c3cccnc3)ccnc2c1-c1ccccc1,.,10.8,8.1%,-3.4,-6.2%,1.5%,-8.5%
Cc1c(NC=C(C#N)C#N)c(=O)n(-c2ccccc2)n1C,0.4,12.6,2.9%,1.4,7.9%[15.4 µM],-1.4%,16.7%
CCOc1ccc(S(=O)(=O)N2CCCC(C(=O)NCC3CCCO3)C2)cc1Cl (centres undefined),.,-4.9,.,?,0.7%,-3.2%,0.8%
COc1ccc2cc(C(=O)N(C)CC(=O)Nc3ccccc3Br)ccc2c1,.,-2.8,.,10.0,19.4%,-23.9%,-23.8%
CS(=O)(=O)c1ccc2nc(NC(=O)c3cccc(NS(=O)(=O)c4ccc(F)c(F)c4)c3)sc2c1,8.2,4.6,-21.6%,-3.2,-41.5%[inhibitor],-12.7%,?
CCC(CC)C(=O)Nc1cc([N+](=O)[O-])ccc1Cl,1.1,-18.6,8.6%,-8.2,-30.1%[inhibitor],-0.1%,9.7%
Cc1ccc2nc(NC(=O)C3CC(=O)N(Cc4ccco4)C3)sc2c1 (centres undefined),0.6,3.3,13.1%,-5.1,11.4%,.,-1.5%
COc1ccc(C(c2c(C)n(C)n(-c3ccccc3)c2=O)c2c(C)n(C)n(-c3ccccc3)c2=O)cc1,2.8,10.8,12.5%,5.5,2.0%,2.0%,9.5%
COc1cccc(NC(=O)N2CCN(c3cccc(C)c3C)CC2)c1,1.4,19.4,-6.9%,12.1,2.2%,-1.9%,-21.6%
CCn1c(SCC(=O)NNC(=O)c2ccc(OC)cc2)nnc1-c1cccnc1,-1.7,-1.5,-2.4%,3.0,2.6%[15.4 µM],-1.0%,12.5%
C/C(CC(=O)NCCCN1CCOCC1)=N\NC(=O)COc1ccc(Cl)cc1,2.5,3.1,4.3%,.,12.8%,0.0%,20.8%

# New compounds follow.
SMILES,Menin-MLL FL inh,TRPML1 inh,Sfp inh,TRPV1 potentiator,gsp ag,ClpP mod,gsp antagonist
O=C(CSc1nc2[nH]c(=O)[nH]c(=O)c2s1)Nc1cccc(F)c1,.,11.5,.,19.7,-41.6%[inhibitor],-3.5%,5.7%
O=C(CSc1nnc(C2COc3ccccc3O2)o1)Nc1nccs1 (centres undefined),-0.8,-5.9,-3.2%,-4.0,0.0%,3.4%,-5.3%
Cc1cc(NC(=O)CSc2nc3c(c(=O)n2C)SCC3)no1,-3.2,-28.9,3.1%,2.2,-23.0%,3.7%,-0.8%
CCOc1nc(NCCc2ccc(OC)c(OC)c2)nc(NC(C)(C)CO)n1,0.7,17.2,-2.2%,.,-48.0%,-1.2%,-12.9%
CC1CCN(CC(=O)Nc2ccc(Cl)cc2[N+](=O)[O-])CC1,0.9,-2.1,-4.5%,0.9,-7.4%[15.4 µM],.,12.8%
COCCN(C(=O)c1cc(OC)c(OC)c(OC)c1)c1c(N)n(Cc2ccccc2)c(=O)[nH]c1=O,-2.6,1.9,2.5%,7.6,-13.4%[15.4 µM],.,.
COc1ccc(C)cc1NC(=O)CSc1nnc(-c2ccccn2)n1Cc1ccco1,-2.9,2.1,-21.7%,27.3,-36.0%[inhibitor],3.9%,-16.4%
CCn1c(SCC(=O)NCCc2ccc(OC)c(OC)c2)nc2c([nH]c3ccccc32)c1=O,.,-0.1,.,.,-107.9%[inhibitor],-1.4%,.
